Source: PubChem (PCMD)
Biofilm kill mix = mixtures killing C. albicans biofilm; C. albicans biofilm persisters + clotrimazole, fluorescence viability; primary screen in compound mixtures of four per well; inhibition, % at 7.6 µM; actives 0.02% (n = 120,000); AID 1242;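 active = inhibition above 30.3% in the primary screen of four-compound pools, then above 30% when the compound was retested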;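 note: compounds exposed to preformed 24 h biofilms for 48 h; the number belongs to the whole pool; some results filed as inactive read as strong as hits; inactives centre near 12; 0% = biofilm with clotrimazole alone and 100% = kill control; retested singly at about 60 µM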
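Probe or stimulus – Clotrimazole 50 µg/mL co-treatment · System – C. albicans biofilms · Schedule – 24 h biofilm formation, then 48 h compound exposure, 37 °C · Evaluation – percent inhibition of biofilm viability · Technique – 2-h Alamar Blue fluorescence, 535/590 nm excitation/emission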
* = called active by the depositor. A portion of the library; rates above refer to the full screens.

SMILES | Biofilm kill mix
C=CCn1c(SC)nc2sc3c(c2c1=O)CCc1ccccc1-3 | 16
Cc1ccc(C(=O)NNC(=O)Cn2nnc3ccccc32)cc1 | 11
O=C(CSCc1ccccc1)N1CCN(c2ccccc2)CC1 | 7
O=C(O)c1nn(-c2ccccc2-c2n[nH]c(=O)[nH]c2=O)c(=O)[nH]c1=O | 3
Cc1nnc(SCC2=C(C(=O)O)N3C(=O)C(NC(=O)Cn4nc(C(F)F)c(Cl)c4C)C3SC2)s1 (stereo unspecified) | -10
CC[n+]1c(C=C2C=C(C)OC(C)=C2)sc2ccccc21 | 9
CC(C)(C)OC(=O)N1CCC[C@H]1c1nnc(SCC(=O)Nc2cccc(Cl)c2)o1 | 22
COc1ccc2[nH]c(=O)c(C(c3nnnn3CC3CCCO3)N3CCCCC3)cc2c1 (stereo unspecified) | 4
CC1(C)CC(N2CCOCC2)=CC(=[N+]2CCOCC2)C1 | 11
CC(C)=CCN1CCN(Cc2cc(C(C)C)n[nH]2)CC1CCO (stereo unspecified) | 30
COc1ccc2oc(=O)c(C(=O)NCc3ccco3)cc2c1 | 1
COc1ccccc1NC(=O)Nc1nc(C(C)(C)C)cs1 | 13
NCCc1nnc(SCc2ccccc2Cl)o1 | 17
O=C(CCS(=O)(=O)c1ccccc1Cl)Nc1ccc(S(=O)(=O)Nc2ncccn2)cc1 | 15
CC(=O)N(Cc1cccs1)Cc1cc2cc(C)c(C)cc2nc1Cl | 10
O=C(Nc1nc2c(s1)CCCC2)c1ccc(S(=O)(=O)N2CCCc3ccccc32)cc1 | 11
COc1ccc(NC(=O)c2ccc(-c3ccc([N+](=O)[O-])cc3)o2)cc1 | 18
Cc1ccc(-n2c(=O)c3ccccc3n(CC(=O)C(C)(C)C)c2=O)cc1 | 25
Nc1sc(-c2ccccc2)cc1C(=O)N/N=C/c1ccc(Cl)cc1 | 18
COc1ccc2c(CCNC(=O)Nc3ccccc3)c[nH]c2c1 | -5
CC/C=C/C(=O)N1CC2(CC(c3cccc(NC(=O)COc4ccc(Cl)cc4)c3)=NO2)C[C@H]1C(N)=O (stereo partly specified) | 1
O=C(CCCN1C(=O)/C(=C/c2ccccc2Cl)SC1=S)NNC(=O)c1ccc(Cl)cc1Cl | 18
O=C(COc1ccccc1[N+](=O)[O-])N(Cc1ccccc1)c1ccccn1 | 12
CC1(OC(=O)CCc2ccccc2)C(=O)C=C2C=C(c3ccc(C#N)cc3)N(Cc3ccccc3)C=C2C1=O (stereo unspecified) | 18
CC1CCC2C(=O)N(c3ccc(C(=O)Oc4cccc5cccnc45)cc3)C(=O)C2C1 (stereo unspecified) | 15
CN1CCN(C2=Cc3cc(Cl)ccc3Sc3cc(F)ccc32)CC1 | 4
CCCn1c2c(c(O)c(C(=O)Nc3nc4ccccc4s3)c1=O)CCCC2 | 11
COc1cccc(NC(=O)Cn2cc(C#N)c3ccccc32)c1 | 8
COc1ccc2nc(-c3cccc(N)c3)[nH]c2c1 | 7
CCCCCCC(=O)OCC(=O)c1ccc2c(c1)NC(=O)CO2 | 3
Cc1nn(-c2ccccc2)cc1/C=N/NC(=O)c1cccs1 | 3
O=C(CNC(=S)N(Cc1ccccc1F)C1CCCCC1)NCCCN1CCOCC1 | 13
O=C(c1ccc(Cn2c(=S)[nH]c3ccc(Br)cc3c2=O)cc1)N1CCN(C2CCCCC2)CC1 | 19
O=C(/C=C/c1cccs1)N1CCc2ccccc21 | 12
CCN(CC)S(=O)(=O)c1ccc(NC(=O)COC(=O)CCc2cc(OC)c(OC)c(OC)c2)cc1 | 17
CC(=O)Nc1ccc2c(c1)NC(=O)CC2 | 11
CN(C)c1cc(N/N=C\c2ccccc2)nc(N(C)C)n1 | 29
Clc1ccc(CN2CCCCCCC2)cc1 | 6
O=C(COC(=O)CCc1c[nH]c2ccccc12)Nc1ccc([N+](=O)[O-])cc1 | 9
COCCN1CCN(Cc2cn[nH]c2-c2cc3ccccc3o2)CC1 | -3
CC(C)(C)NC(=O)C(c1cccs1)N(C(=O)c1csnn1)c1ccccc1F (stereo unspecified) | 3
Cc1ccnc(NS(=O)(=O)c2ccc(NC(=O)CCS(=O)(=O)c3ccccc3)cc2)n1 | 12
Nc1ncnc(Nc2ccc(F)cc2)n1 | 5
Cc1ccccc1C(=O)OCc1cnc(Cl)s1 | -4
COc1ccc(N2CCN(S(=O)(=O)c3cn(C)c(=O)n(C)c3=O)CC2)cc1 | 25
CN(C)N=Nc1nc2c([nH]1)c(=O)n(C)c(=O)n2C | 29
O=C1OCCN/C1=C\C(=O)c1ccccc1 | 14
CC1CCCCN1S(=O)(=O)c1ccc(C(=O)Nc2ccccc2-c2nc3ccccc3[nH]2)cc1 (stereo unspecified) | 23
Cc1ccc(-n2ncc3ccccc3c2=O)cc1Cl | 8
COCCNc1nnc(SCC(=O)Nc2cc(-c3ccccc3)nn2-c2ccccc2)s1 | 12
CCCCC(=O)N/N=C/c1ccc(N2CCOCC2)c([N+](=O)[O-])c1 | 10
CC(=O)NCCNc1ccc([N+](=O)[O-])cc1C#N | 18
CC(=O)OCC1O[C@@H](O[C@@H]2C[C@H]3C(C)(C)[C@H](OC(C)=O)CC[C@]3(C)[C@H]3CC[C@]45C[C@]4(CC[C@H]5[C@@H](C)C[C@@H](O)[C@H](O)C(C)(C)O)[C@@]32C)[C@H](O)[C@@H](O)[C@@H]1O (stereo partly specified) | 4
CCC/C(=N\NC(=O)c1ccc(CSc2nncn2C)cc1)c1ccccc1 | 7
COC(=O)c1ccc(NC(=O)COC(=O)c2cccc3c(=O)c(C)c(-c4ccccc4)oc23)cc1 | 10
[O-]c1n[n+](-c2ccc(Cl)cc2Cl)cc2ccccc12 | 4
OC(C#CCN1CCCCCC1)(c1ccccc1)c1cccnc1 (stereo unspecified) | 23
N=c1sccn1CC(=O)Nc1ccccc1Sc1ccccc1 | 5
CN(C)c1ccc(C=C2C(=O)OC3(CCCC3)OC2=O)cc1 | 20
CCn1c(SCC(=O)N/N=C/c2c[nH]c3ccccc23)nnc1-c1ccc(C)cc1 | 22

Next section
SMILES | Biofilm kill mix
Cc1ccc(CCC(=O)Nc2ncc(Cc3cc(Cl)ccc3Cl)s2)o1 | 14
CCOC(=O)c1nc2nc(-c3cccs3)cc(C(F)(F)F)n2n1 | 8
O=C(CSC1=NNC(c2ccccn2)S1)Nc1ccccc1 (stereo unspecified) | 17
O=C(Oc1ccc2ccccc2c1Cl)N1CCCCCC1 | -2
Cc1cc(C)c2nc(/N=C(\N)NC(=O)c3ccccc3)nc(C)c2c1 | 13
CCOC(=O)NC(=O)C(=CNc1cccc(OC)c1)C(=O)NC(=O)OCC | 9
CS(=O)(=O)NCc1ccc(C(=O)O)cc1 | 2
Cc1cccc(NC(=S)N=Nc2c(O)n(C)c3ccc(S(=O)(=O)N4CCOCC4)cc23)c1 | -2
CN(CC(=O)Nc1ccc(F)cc1)CC(=O)Nc1ccc(F)c(F)c1F | 4
CCOC(=O)CNC(=O)c1cccs1 | 10
COC(=O)c1ccc(CSc2nnc3c(n2)[nH]c2ccccc23)cc1 | 33
COc1ccc(Cc2noc(CN3CCN(Cc4csc(C)n4)CC3)n2)cc1OC | 10
CN(NC(=O)c1ccccc1)C1=NS(=O)(=O)c2ccccc21 | 15
NC(=O)N/N=C/CCc1ccccc1 | 16
CC1=C(C)/C(=N\OS(=O)(=O)c2ccc(C)cc2)C=CC1=O | 7
CCC(C)(C)NC(=O)C(c1cccc(OC)c1OC)N(CC(C)C)C(=O)CCC(=O)Nc1cc(C)on1 (stereo unspecified) | 13
CC(=O)Nc1cccc(C(=O)NCC2(N3CCCCC3)CCCCC2)c1 | 11
COc1ccc(OC)c([C@@H]2OCCC=C[C@H]2C)c1 | 17
COC(=O)C1=C(C)Nc2[nH]c(=S)[nH]c(=O)c2C1c1ccc(O)cc1 (stereo unspecified) | 10
CC1(c2nnc(-c3ccc(Cl)cc3)o2)CC(c2ccncc2)=NO1 (stereo unspecified) | 7
O=C(NCc1cccc(C(F)(F)F)c1)c1cccc(S(=O)(=O)NCc2ccccc2)c1 | 11
COc1ccc(NC(=O)c2ccccc2NC(=O)CSc2ccccc2)cc1 | 14
O=C(COC(=O)C1CCN(C(=O)c2ccc(Cl)cc2)CC1)NC1CCS(=O)(=O)C1 (stereo unspecified) | -1
S=c1[nH]nc(-c2ccccc2Cl)n1Cc1ccccc1 | 14
Cc1cccc(C)c1NC(=S)NC(C)(C)CO | -2
O=C(CCSCc1ccc(Cl)cc1)NCc1cccnc1 | 13
Cc1ccc(C(=O)N[C@H](C(=O)OCc2nnc(-c3ccccc3)o2)C(C)C)cc1 | 14
CC(C)CN1CCNC(=O)C1CC(=O)N(C)CC1CCOCC1 (stereo unspecified) | 15
CNC(=O)CSc1nnc(-c2ccco2)n1-c1ccc(C)cc1 | 15
Cc1nnc(NC(=O)CSc2nc3ccccc3[nH]2)s1 | 15
CSc1ccccc1C(=O)Nc1ccccc1C(=O)N1CCCC1 | 12
CCOc1ccccc1NC(=O)CSc1nnc2ccc(-c3ccncc3)nn12 | 10
Cc1ccc(N2CCN(/N=C/c3ccncc3)CC2)cc1 | 10
CN1CCN(C(=S)NC(=O)c2ccc(Cl)cc2)CC1 | 31
COCC(=O)OCC(=O)N1N=C(c2ccc(Cl)cc2)CC1c1ccco1 (stereo unspecified) | -5
CCN1CCc2c(OCC(=O)N3CCc4ccccc43)cccc2C1=O | 9
O=C(O)C1=C(C(=O)Nc2cc(C(F)(F)F)ccc2Cl)CCCC1 | 15
C=CCN(c1ccc(OC)cc1)S(=O)(=O)c1ccc(Cl)c(C(=O)OCC(=O)NC2CC2)c1 | 15
COc1cc(OC)c(OC)cc1/C=N/NC(=O)CCc1c(C)n[nH]c1C | 22
CC(C)(C)c1ccc(NC(=O)COC(=O)c2ccc(NS(=O)(=O)c3ccc(F)c(F)c3)cc2)cc1 | 12
Cc1ccccc1NC(=O)C1CC(=O)OC12CCOC(C)(C)C2 (stereo unspecified) | 27
Cc1oc(C(C)(C)C)cc1C(=O)NC(Cc1ccccc1)C(=O)O (stereo unspecified) | 6
Cn1cc([N+](=O)[O-])c(C(=O)NCC(=O)O)n1 | 5
Cc1ccccc1NC(NC(=O)OCCn1c([N+](=O)[O-])cnc1C)C(Cl)(Cl)Cl (stereo unspecified) | 17
CN(C)/C=C(/C(=O)c1ccccc1)n1cncn1 | 7

In a second layout: entries from further up
CC(C)(C)c1ccc(NC(=O)COC(=O)c2ccc(NS(=O)(=O)c3ccc(F)c(F)c3)cc2)cc1
  Biofilm kill mix = 12

Cc1ccccc1NC(=O)C1CC(=O)OC12CCOC(C)(C)C2 (stereo unspecified)
  Biofilm kill mix = 27

Cc1oc(C(C)(C)C)cc1C(=O)NC(Cc1ccccc1)C(=O)O (stereo unspecified)
  Biofilm kill mix = 6

Cn1cc([N+](=O)[O-])c(C(=O)NCC(=O)O)n1
  Biofilm kill mix = 5

Additional results:
SMILES | Biofilm kill mix
COc1ccc(/C=C(\C#N)C(=O)OCC(=O)NCc2ccc(Cl)cc2)cc1 | 6
COc1cccc(NC(=O)CN(C)CC(=O)Nc2ccccc2-c2ccccc2)c1 | 10
CC1(C)CC(=O)C(C=NCC2CCN(C(=S)Nc3cccc(Cl)c3)CC2)=C(O)C1 | 10
CCCCOC(=O)c1ccc(NC(=O)c2nn(C)cc2Br)cc1 | 15
CCOC(=O)C(O)(CC(=O)Nc1ccc(Cl)cc1Cl)C(F)(F)F (stereo unspecified) | 5
Cc1nn(-c2ccccc2)cc1/C=N/NS(=O)(=O)c1ccccc1 | 9
O=C(Cn1ncc2c1-c1ccccc1OC2)N1CCN(Cc2ccccc2)CC1 | 24
Cc1nc(NC(C)c2ccccc2)sc1C(=O)Nc1ccccc1 (stereo unspecified) | 21
O=C(NNC1=NCCC1)c1cccc(S(=O)(=O)N2CCCCC2)c1 | -4
Cc1noc(C)c1COc1ccc(CC(=O)NCCc2ccccc2)cc1 | 16
FC(F)(F)c1ccc(Cl)c(NC(=S)N/N=C/c2ccccc2Cl)c1 | 15
O=C(C1=C[C@H](C2CCCCC2)C[C@H](OCc2ccc(CO)cc2)O1)N1CCOCC1 | 19
CCCSc1nc2c(c(=O)n(C)c(=O)n2C)n1C | 4
C=CCOc1ccc(C2CC(C)=NN2c2ccccc2)cc1 (stereo unspecified) | 2
CC(=O)NCCn1c(SCC(=O)NC2CCCCC2)nc2ccccc2c1=O | 14
C=CCOC(=O)C1=C[C@H](c2ccc(C(F)(F)F)cc2)[C@@H](CCCO)[C@H](OCC)O1 | 5
O=c1cc([O-])[n+]2c3n1CCCN3CCC2 | 10
O=C1N=c2ccccc2=C1c1sc(NS(=O)(=O)c2ccccc2)nc1O | 13
COC(=O)c1ccc(/C=N/Nc2nc(-c3ccc(C)cc3)cs2)cc1 | 13
COc1ccccc1C1/C(=C(/O)c2ccc(C)cc2)C(=O)C(=O)N1CCN1CCOCC1 (stereo unspecified) | 18
CC1Cc2ccccc2N1C(=S)NC(=O)c1ccco1 (stereo unspecified) | 11
CC(=O)c1cccc(NC(=O)C(CC(C)C)NC(=O)C2CCCCC2)c1 (stereo unspecified) | 19
Cc1cn2c(N)c(C=C3C=C(Cl)C(=O)C(Cl)=C3)c(=O)nc2s1 | 16
COc1ccc(C(=O)Nc2sc(C(=O)N(C)C)c(C)c2C#N)cc1[N+](=O)[O-] | 13
O=C(Cn1cncn1)NCc1cccc(OC(F)F)c1 | 3
S=c1[nH]nc(-c2ccc(Cl)cc2Cl)n1Cc1ccccc1 | 15
CCN(CC)C(=O)C1CC(=O)OC12CCCCC2 (stereo unspecified) | 15
